PrP UTR inh: inhibition of PrP 5' UTR reporter expression; 0.35% of 340,000 active; AID 488862, 2010; cell-based PrP 5' UTR mRNA reporter, plate reader; inhibition, % (no concentration beside the values);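 active = every replicate at 50% or more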;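 also: 0 = median of the neutral control wells; tested in H4 reporter cells; numbers are from one replicate; inactives centre near -14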
Mtb hypoxia rep: PubChem AID 1159583. fluorescence inhibition, % (no concentration beside the values). 0.1% of 300,000 active. M. tuberculosis hypoxia-regulated fluorescent reporter, fluorescence;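 active = 35 to 45% if threefold the growth effect, above 45% if 1.5-fold the growth effect; inactive = the rest, general growth blockers included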;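 also: wells of about 50 µL received 100 nL stock; 0% = vehicle wells and 100% = reference inhibitor wells; whole bacteria with a GFP reporter of the hypoxia response; strong numbers were not always called active; many hits fall short of the cut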
ugtP null kill: growth inhibition of ugtP-null S. aureus, primary screen, RN4220 ugtP deletion, OD600. 16 h; some inactives read as strong as hits. growth inhibition, % (concentration not given with the values). 0.54% of 330,000 active;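 active = z-score under -3 and OD600 up to 0.15 on both plates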;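 also: plate controls were untreated wells for no effect and antibiotic for full effect; wells of about 80 µL received 100 nL stock; the first replicate is given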
Bead autofluor: compound fluorescence in toxin protease inhibitor counterscreen | compound autofluorescence counterscreen, microsphere flow cytometry; stronger effect = higher value | fluorescence intensity (concentration not given with the values) | 3.1% of 360,000 active | AID 624483;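 active = at least 3 SD above the mean of all compounds, about 16000 in these data; inconclusive = too few beads counted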;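 also: 100 nL of 1 mM stock went into each well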
BJeLR lethal: MLPCN primary cell-based screen for lethality selective to Ras in HRASV12 cells. BJeLR (HRASV12) viability, CellTiter-Glo ATP luminescence, 48 h; reference of the scale not given here. inhibition, % (concentration not given with the values). 0.17% of 300,000 active;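 active = replicate mean above 50%; inconclusive = above 50% but judged a plate artefact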;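 also: 50 nL library stock added to about 25 µL; numbers are from one replicate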
Sa RN4220 lethal: growth inhibition of S. aureus RN4220, primary screen, OD600. 16 h. inhibition, % (test concentration not listed). 0.33% of 330,000 active. AID 1259311, 2017;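 active = z-score of -3 or lower and OD600 up to 0.18 on both plates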;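 also: plate controls were untreated cells for no effect and reference antibiotic for full effect; stock transfer was 100 nL into about 80 µL; one replicate is shown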
Mtb hypoxia rep growth: second read-out of Mtb hypoxia rep, no call of its own (marks repeat the call); growth inhibition, %; measured here: M. tuberculosis growth (absorbance);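 0% = vehicle and 100% = reference antibiotic; read after six days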
Numbers without * were called inactive; ? = inconclusive; / = not tested or not shown.

Molecule,PrP UTR inh,Mtb hypoxia rep,Mtb hypoxia rep growth,ugtP null kill,Bead autofluor,BJeLR lethal,Sa RN4220 lethal
O=C(NC(=S)Nc1ccc(S(=O)(=O)N2CCCC2)cc1)c1cccs1,-18,8,0,31,2076,4,15
O=C(Oc1ccc(-c2ccccc2)cc1)N1CCOCC1,-83,3,-4,5,21166*,2,3.4
COc1ccc(N(CC(=O)NC2CCCCC2)C(=O)c2snc(C(N)=O)c2N)cc1,-10,17,1,-5,5708,-1,1.8
Cc1cccc(C(=O)ON=C(c2ccccc2)c2ccncc2)c1,/,5,-4,2,/,/,1.1
COC(=O)C1=CN(c2cccc(Cl)c2)C=C(C(=O)OC)C1c1cccc(OC)c1,-8,-4,-12,7,5641,9,-0.2
CC(NC(=O)CNC(=S)N(Cc1ccccc1)Cc1cccnc1)c1ccccc1 (configuration not stated),-14,-7,-2,9,3319,6,8.7
Cc1cc(C(F)F)n2ncc(C(=O)NCc3ccccc3C(F)(F)F)c2n1,-8,5,10,-8,3450,4,-1.5
O=C1C2Sc3[nH]c(=O)sc3C(c3ccccc3)C2C(=O)N1c1ccc(Cl)cc1 (configuration not stated),-17,/,/,-19,2225,/,8.2
COc1ccccc1OCCNC(=O)C1CC(=O)N(c2ccccc2OC)C1 (configuration not stated),-8,6,-3,2,4149,/,2.5
CCCn1c(SCC(=O)Nc2ccc3c(c2)OCCO3)nnc1-c1ccco1,-12,/,/,12,4872,2,2.0
O=[N+]([O-])c1cccc(NC(=S)NCCc2ccccc2)c1,-19,4,2,-20,2604,2,-1.1
Cc1cccc(-n2c(=O)c3ccccc3n3c(=S)[nH]nc23)c1C,-19,0,0,-3,4473,-2,2.8
CCN1CCN(Cc2cc(OC)c(OC)cc2[N+](=O)[O-])CC1,/,6,14,5,/,6,3.9
Cc1ccc(C(=O)NN=C/C=C/c2ccc(Br)cc2)cn1,/,5,4,-4,/,/,7.2
COc1cc(S(=O)(=O)Nc2ccc3c(c2)C(=O)N(C)C3=O)ccc1NC(C)=O,-21,5,1,1,4278,/,3.0
COc1ccc(-n2cc(-c3ccc(OC(F)F)cc3)[n+]3c2CCCCC3)cc1,-17,6,10,8,2552,7,-2.5
Cc1ccc(Cl)cc1N1CCN(S(=O)(=O)c2ccc3c(c2)CC(=O)N3C)CC1,-18,1,-2,-2,5456,1,1.8
COc1ccc(-c2nc(N)ncc2Oc2ccccc2Br)c(O)c1,-23,/,/,-12,5110,2,-6.7
COc1cccc(N(C(=O)c2cnccn2)C(C(=O)NC2CCCCC2)c2ccc(Cl)cc2)c1 (configuration not stated),-10,0,5,8,3029,-8,5.1
COc1ccc(S(=O)(=O)Nc2c(C)n(C)n(-c3ccccc3)c2=O)c(Cl)c1Cl,1,2,0,2,/,2,2.1
NC(=O)c1nsc(C(=O)N(c2ccccc2)C(C(=O)NC2CCCC2)c2cccs2)c1N (configuration not stated),1,0,-11,13,4479,-3,5.6
CC1(C)NC(=O)N(CC(=O)OCC(=O)Nc2cccc(F)c2)C1=O,-41,/,/,-1,2791,0,0.1
CCCCCN(C(=O)CCC(=O)OCC(=O)N1C(C)CCCC1C)c1c(N)n(CCCC)c(=O)[nH]c1=O (configuration not stated),-3,10,12,6,6091,-1,1.2
COc1ccccc1NC(=S)N(CCc1ccc(OC)c(OC)c1)Cc1ccccn1,6,-2,-2,5,4350,17,3.0
COc1ccc(C(=O)C[n+]2ccc3c(c2)nc(-c2ccccc2)n3C)cc1,-3,7,5,6,2781,-24,6.0
Cc1cccc(C)c1NC(=S)N/N=C/c1ccccc1C(=O)O,-14,/,/,/,4909,0,/
O=C(CSc1ccccn1)N1CCN(S(=O)(=O)c2ccc(Cl)cc2)CC1,-19,5,0,3,5150,-2,0.0
CC1CCCCC1NC(=O)Cc1ccc(S(=O)(=O)N2CCOCC2)s1 (configuration not stated),-9,4,0,5,5235,-10,5.8
O=C(N/N=C/c1cccnc1)c1ccc(Cn2cc([N+](=O)[O-])cn2)o1,8,/,/,/,2121,3,/
NC(=O)C1(NC(=O)[C@@H]2CC3(CC(c4cccc(NC(=O)[C@@H]5CCC(=O)N5)c4)=NO3)CN2C(=O)Cc2ccc(Cl)cc2)CC1 (some centres not stated),-13,/,/,/,3939,-2,/
C/[N+]([O-])=C/c1c(OCc2ccccc2)ccc2ccccc12,-24,14,-12,14,2802,3,1.1
O=C(CN1CCN(c2ccccn2)CC1)NCc1cccs1,-9,/,/,4,3456,-2,-0.2
CN(CCOc1ccc(C=C2C(=O)NC(=O)NC2=O)cc1)c1ccccn1,-6,8,4,7,7877,-2,3.9
COc1ccc(C=NNC(=O)c2[nH]c3ccc(Br)cc3c2-c2ccccc2)cc1,/,-1,2,-2,/,/,-3.3
COc1ccc(C2(CNC(=O)c3cccs3)CCOCC2)cc1,-8,-10,-3,2,4115,12,2.5
O=C(c1ccc2c(c1)OCO2)N1CCC2(CC1)Oc1ccc(F)cc1C(=O)C21CC(c2cccnc2)=NO1 (configuration not stated),-2,-1,2,-1,4073,2,4.0
Cc1c(N)c(C(C)(C)C)cc(C(C)(C)C)c1[N+](=O)[O-],-5,8,-9,95*,2487,-6,4.6
COC(=O)CCC(=O)Nc1cccc(C(=O)Nc2cccc(Cl)c2)c1,-13,8,0,-5,3870,1,-1.3
O=C(NCC1CCCO1)c1cccc(NC(=O)c2ccc(Br)cc2)c1 (configuration not stated),-4,6,-4,-1,5308,-6,4.8
CCOc1ccc(/C=C\C(C)=NO)cc1,/,19,5,29,/,/,8.0
CCCCc1c(C)nc2c(OC)cccc2c1SCC(=O)O,-9,7,-3,6,4359,-4,2.4
CCOc1ccc(CN2CCNC(=O)C2CC(=O)NCC2CCOCC2)cc1 (configuration not stated),-3,4,4,6,5946,1,2.7
CCn1c(SCC(=O)NC(C)(C)C)nnc1-c1ccncc1,-8,6,2,5,4405,6,5.6
O=C(COc1ccc(F)cc1)N1CCc2ccccc2C1,-31,/,/,/,3277,-10,/
COCCN(C(=O)CCC(=O)Nc1ccccn1)C(C(=O)NC(C)C)c1ccc(Cl)cc1 (configuration not stated),8,-4,11,-1,6108,-13,2.4
COc1ccc(NC(=O)C(c2ccc(OC)cc2)N(C)C(=O)Cc2cccs2)cc1 (configuration not stated),-25,1,-1,4,2538,2,2.2
CC(C)c1ccc(-c2nc3ccccc3s2)cc1,85*,5,1,15,4742,15,3.2
CCOC(=O)N1CCN(C(=O)c2cc(Cl)c(Cl)cc2C(=O)O)CC1,7,1,-4,3,8092,0,2.6
O=C(NCc1ccc2c(c1)OCO2)C1CCC(=O)N1C1CCCC1 (configuration not stated),-3,2,1,2,3230,6,2.4
Cc1ccsc1C=NNC(=O)C1CC(=O)N(c2ccccc2)C1 (configuration not stated),/,1,8,0,/,/,1.9
Cc1cc(C)c(NC(=O)CSc2nncn2-c2cccnc2)c(C)c1,-13,2,11,7,4180,1,2.7
CCOC(=O)CNc1c(-c2ccc(O)cc2)nc2ccccn12,1,16,14,4,23116*,0,9.1
Cn1c(=O)c2c(nc(N3CCOCC3)n2CCNC2=NCCC2)n(C)c1=O,-17,7,2,3,4242,4,1.4
Cn1nnnc1Sc1ncnc2scc(-c3cccc4ccccc34)c12,-16,24,9,5,3740,/,1.6
CCCn1nc(Oc2nc(NCC)nc(NCC)n2)ccc1=O,0,3,24,-2,?,3,1.2
Cc1nnc(NN=Cc2ccc(-c3cccc(C(=O)O)c3)o2)n1N,/,-3,5,-8,/,/,2.0
CCOc1cc(C2NC(=O)NC2=O)ccc1O (configuration not stated),-36,4,-5,3,3320,-13,3.0
COCc1c(Br)c(C)nc(OCC(=O)O)c1C#N,-9,/,/,0,4750,26,2.3
O=C1NC(c2ccccc2)(C(F)(F)F)SC2=CCCCCN12 (configuration not stated),-11,/,/,-15,3322,-11,14
COc1ccc(NC(=O)c2cc(Br)c(Br)s2)cn1,-21,12,10,-3,4034,-2,2.3

A run of entries from further up:
Molecule,PrP UTR inh,Mtb hypoxia rep,Mtb hypoxia rep growth,ugtP null kill,Bead autofluor,BJeLR lethal,Sa RN4220 lethal
COc1ccc(NC(=O)C(c2ccc(OC)cc2)N(C)C(=O)Cc2cccs2)cc1 (configuration not stated),-25,1,-1,4,2538,2,2.2
CC(C)c1ccc(-c2nc3ccccc3s2)cc1,85*,5,1,15,4742,15,3.2
CCOC(=O)N1CCN(C(=O)c2cc(Cl)c(Cl)cc2C(=O)O)CC1,7,1,-4,3,8092,0,2.6
O=C(NCc1ccc2c(c1)OCO2)C1CCC(=O)N1C1CCCC1 (configuration not stated),-3,2,1,2,3230,6,2.4
Cc1ccsc1C=NNC(=O)C1CC(=O)N(c2ccccc2)C1 (configuration not stated),/,1,8,0,/,/,1.9

The listing continues:
Molecule,PrP UTR inh,Mtb hypoxia rep,Mtb hypoxia rep growth,ugtP null kill,Bead autofluor,BJeLR lethal,Sa RN4220 lethal
COc1ccc(S(=O)(=O)N2CCc3ccccc3C2)cc1,-3,-2,9,-9,4557,-20,5.2
Cc1ccc(C(=O)N/C(=C/c2ccco2)C(=O)NCc2ccco2)cc1,-16,-4,0,1,5588,-9,1.9
CC(=O)NC1C(OCc2ccccc2)OC2COC(C)(C)OC2C1O (configuration not stated),-19,-3,0,-5,4984,6,1.8
COc1ccccc1N1C(=O)C2C(C(=O)c3ccccc3)=NN(c3ccccc3OC)C2C1=O (configuration not stated),-10,13,8,8,3470,-8,2.0
COc1ccc(S(=O)(=O)N2CCOCC2)cc1NC(=O)C1COc2ccccc2O1 (configuration not stated),-5,5,-1,6,4758,1,1.9
CCCCn1c(N)c(N(CCOC)C(=O)COC(=O)Cc2cccc(OC)c2)c(=O)[nH]c1=O,-16,3,-2,10,?,1,4.4
CCN1CCN(c2nc3c(C)cccn3c(=O)c2/C=C(\C#N)S(=O)(=O)c2ccc(Cl)cc2)CC1,-20,3,-4,2,6656,-3,1.7
N#Cc1cc([N+](=O)[O-])ccc1NC(=O)COC(=O)C1CC2CCCC(C1)C2=O (configuration not stated),-14,-5,0,12,?,-7,5.9
O=C(CSc1nccc(-c2cccs2)n1)Nc1ccccc1,-15,-4,4,-1,/,2,-1.9
CCNC(=O)COC(=O)c1cc(-c2ccccc2)nn1-c1ccccc1,-24,4,1,7,4425,-7,4.6
COc1ccc(CC(=O)NCC(=O)NCc2cc(=O)n(C)c(=O)n2C)cc1,-39,6,8,6,5262,4,5.1
Nc1ccc2nc(-c3ccc(Cl)cc3)[nH]c2c1,-108,5,5,7,5968,17,-1.4
O=C(NCCc1ccc(F)cc1)c1cc([N+](=O)[O-])ccc1N1CCOCC1,-12,7,5,2,6162,-16,2.2
Cc1ccc2nc(N(CCN(C)C)C(=O)c3cc(Cl)sc3Cl)sc2c1,-7,4,0,0,2507,2,3.5
NC(CSS(=O)(=O)O)=NCCC12CC3CC(CC(O)(C3)C1)C2,-11,7,11,5,2663,2,4.2
CCCCCN(C(=O)CCC(=O)OCC(=O)N1CCCC(C)C1)c1c(N)n(CCCC)c(=O)[nH]c1=O (configuration not stated),-12,2,-1,6,4663,-10,1.5
Cn1c(Cc2ccccc2)nnc1SCC(=O)N1CCCCC1,-19,7,7,-1,6853,-2,1.4
CCc1ccc(N2CC(C(=O)NC3CC3)CC2=O)cc1 (configuration not stated),-14,/,/,/,5523,-1,/
Cc1cc(C(=O)Nc2nnc(C(F)(F)F)s2)cs1,-18,12,7,10,4653,5,14
CC(=O)Nc1nnc(SCC(=O)N2CCc3ccccc32)s1,-25,3,0,2,3785,1,1.1
COc1ccc(C2=NN(C(=O)CCC(=O)O)C(c3ccccc3)C2)cc1 (configuration not stated),/,-1,3,8,4114,16,1.7

Screening data (PubChem)
